GIV-Gai inh: inhibitors of GIV GBA-motif binding to rat Galpha-i3 | 210,000 tested, 0.42% active | P08753 | Galpha-i3/FITC-GIV peptide fluorescence polarization, 90 min; stronger effect = lower value; scaled: aluminum fluoride 0%, vehicle 100% | percent of control (FP), % (concentration not given with the values);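 active means replicate mean at 85% of control or lower, very high polarization wells dropped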;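 further: wells of about 15 µL received 100 nL stock; the first replicate is given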
Target sequence (P08753 whole entry, looked up): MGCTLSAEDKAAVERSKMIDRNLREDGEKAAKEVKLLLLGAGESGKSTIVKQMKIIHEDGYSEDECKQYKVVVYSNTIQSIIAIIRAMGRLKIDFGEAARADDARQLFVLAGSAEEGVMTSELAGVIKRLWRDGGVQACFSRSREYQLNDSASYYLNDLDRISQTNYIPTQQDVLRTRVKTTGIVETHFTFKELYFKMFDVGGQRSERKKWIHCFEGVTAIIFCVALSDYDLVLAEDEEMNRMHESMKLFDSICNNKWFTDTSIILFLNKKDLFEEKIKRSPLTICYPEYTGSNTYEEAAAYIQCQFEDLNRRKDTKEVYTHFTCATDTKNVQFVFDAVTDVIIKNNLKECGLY
HCMV NEC inh: disrupts HCMV UL50-UL53 complex binding. HTRF UL50-UL53 interaction, normalized percent inhibition. inhibition, % (concentration not given with the values). 190,000 tested, 0.15% active. AID 1918969;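 active means both replicates at 50% or more, plus weaker picks with an unusually low signal ratio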;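 further: stock transfer was 100 nL into about 20 µL; 0% = negative control wells and 100% = wells with untagged competitor protein; inactives centre near -12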
Sa growth 42C: blocks Staphylococcus aureus growth | 170,000 tested, 0.53% active | S. aureus RN4220 growth, OD600, 20 h, 42 °C; stronger effect = lower value | relative growth, % (concentration not given with the values);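 active means growth at 42 °C up to 50% and 20 or more points under that at 30 °C, or under 10% at both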;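 further: 300 nL library stock went into each well; scaled to the means of positive and negative controls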
Sa growth 42C second temp: recorded beside Sa growth 42C, whose call it bears; relative growth, %; measured here: growth at 30 °C;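 optical density after 20 h as mean of two plates; 100% = untreated growth and lower means inhibition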
An asterisk follows results filed as active; / = no result given; & = joins results of further samples.

SMILES	GIV-Gai inh	HCMV NEC inh	Sa growth 42C	Sa growth 42C second temp
Cc1cc2ccccc2n1CCNC(=O)C12CC3CC(CC(C3)C1)C2	106	/	98	97
COc1ccc(C2Nc3ccccc3C(=O)N2c2ccc(Cl)cc2)cc1CSc1ccccn1 (stereo not given)	101	-17	/	/
CC(C)C(NC(=O)c1ccc(C(C)(C)C)cc1)C(=O)N1CCC1 (stereo not given)	/	-21	83	94
CC(C)(C)c1ccc2c(c1)N(CC(=O)NCCCN1CCN(c3ccccc3F)CC1)C(=O)CO2	102	/	124	69
COc1ccc(C2N=C(N)Nc3nc(=O)c4ccccc4n32)cc1 (stereo not given)	102	-8	/	/
CCn1c(CSc2nc3ccccc3s2)nnc1SCC(=O)c1ccc2c(c1)OCCO2	/	-18	83	81
CC(=O)Nc1ccccc1-c1nc2ccc(C(=O)N3CCN(c4cccc(C)c4)C(C)C3)cc2[nH]c1=O (stereo not given)	99	/	103	98
CCN(C1CCS(=O)(=O)C1)S(=O)(=O)c1ccccc1 (stereo not given)	100	-12	99	89
COc1cccc(C(=O)Nc2cccc(OCc3cc(=O)n4cccc(C)c4n3)c2)c1	98	/	109	102
CCCN1CCN(CCCNC(=O)c2cnc(SC)nc2-c2ccccc2)CC1	110	0	113	100
CN(C)c1ccc(NC(=O)Cn2c(SCc3ccc(F)cc3)nc3ccncc32)cc1	98	-10	107	78
COc1cc2c(cc1NC(=O)C(C)NCc1ccc3c(c1)OCO3)oc1ccccc12 (stereo not given)	/	-16	91	97
O=C(Cn1c(-c2cccs2)cc2cc(F)ccc21)N1CCN(c2ccccc2)CC1	105	/	95	99
Cn1c(=O)c(C#N)c(-c2ccccc2)n2cnnc12	/	-70	108	81
Cc1oc(-c2ccc(C(=O)NCCc3c[nH]c4ccccc34)cc2)nc1CSc1ccccc1	107	-7	/	/
O=C(Cn1ncc2ccccc21)NCc1ccc(Cl)cc1	104	/	114	99
Cc1cccnc1-n1c(CCN2C(=O)c3ccccc3C2=O)nc2ccccc2c1=O	106	2	90	92
CC(C)CN(C(=O)C1CC1)C1CCS(=O)(=O)C1 (stereo not given)	/	-5	99	78
COc1cccc(C(=O)Nc2nnc(CCS(=O)(=O)c3cc(Cl)ccc3Cl)s2)c1	99	-9	/	/
CC(C)Cc1ccc2c(N)c(C(=O)O)sc2n1	110	-27	94	87
O=C1CCCN1c1ccccc1	107	-2	100	97
c1ccc(-c2nnc(CN3CCc4ccccc4C3)o2)cc1	109&101	-20	93	65
CCOC(=O)CC1c2cc(OCC)c(OCC)cc2CCN1S(C)(=O)=O (stereo not given)	103	8	96	107
O=C(OCc1nc(-c2ccccc2Cl)no1)c1ccc2c(=O)n3c(nc2c1)CCCCCC3	/	0	90	97

2 of the compounds above, as labelled records:
CC(=O)Nc1ccccc1-c1nc2ccc(C(=O)N3CCN(c4cccc(C)c4)C(C)C3)cc2[nH]c1=O (stereo not given)
  GIV-Gai inh = 99; HCMV NEC inh = /; Sa growth 42C = 103; Sa growth 42C second temp = 98

COc1cccc(C(=O)Nc2cccc(OCc3cc(=O)n4cccc(C)c4n3)c2)c1
  GIV-Gai inh = 98; HCMV NEC inh = /; Sa growth 42C = 109; Sa growth 42C second temp = 102

Other structures
SMILES	GIV-Gai inh	HCMV NEC inh	Sa growth 42C	Sa growth 42C second temp
CCc1ccc(CNc2ccc3c(c2)ncn3C(C)(C)C)cc1	103	-19	39	2
O=S(=O)(NCc1nc2cccnc2n1Cc1ccc(F)cc1)c1ccc(Cl)s1	105	/	106	88
O=C(Cn1ccn(-c2ccccc2)c(=O)c1=O)c1ccc(F)cc1	98	/	79	84
COC(=O)c1cnn(-c2ccc(C(=O)Nc3cc(OC)c(OC)c(OC)c3)cc2)c1N	95	/	114	87
Cc1ccc(CNc2ccccn2)cc1	103	-1	119	79
CCOc1ccc(NC(=O)CN2CCN(CC(=O)Nc3ccc(OC)cc3)CC2)cc1	100	/	75	93
O=C(Nc1cc(N2CCCCC2)ncn1)c1ccc(F)cc1	102	-22	111	91
COc1ccc(N2CCN(CCCNC(=O)c3sc4ncccc4c3-n3cccc3)CC2)cc1	98	/	87	82
OCCOCCNCc1ccc(-c2ccc(Cl)cc2)o1	105	-24	/	/
Cc1cccc(Nc2c(-c3ccc(N4CCOCC4)cc3)nc3ncccn23)c1	116	-42	/	/
CSC1=NC2(CCN(C(=O)OC(C)(C)C)CC2)Nc2ccccc21	105	-36	85	95
O=C(O)c1ccc(CN2CCc3ccccc3C2)cc1	/	-10	97	89
O=c1cc(Nc2ccccc2)cc[nH]1	98	/	99	75
NCc1nc2cccnc2n1Cc1ccccc1Cl	101	-16	102	87
O=C1N=c2ccc(Br)cc2=C1c1sc(=S)n(-c2ccc(O)cc2)c1O	103	-10	/	/
COc1cc(C2CC(=O)Oc3c2c(=O)[nH]c2ccccc32)cc(OC)c1OC (stereo not given)	100	-16	109	83
CC(C)Oc1ccc(CNC(=O)Cn2nc(N3CCN(c4ccccc4)CC3)ccc2=O)cc1	104	/	88	92
Cc1ccc(C)c(N2C(=O)CS/C2=N\NC(=O)c2ccc(S(=O)(=O)N3CCCC3)cc2)c1	106	1	72	105
CCN1CCN(C(c2ccccc2Cl)c2sc3nc(-c4ccco4)nn3c2O)CC1 (stereo not given)	98	/	83	94
Cc1cc(C(=O)N2CCCCC2)c2c(=O)n(CC(=O)N(C)c3ccccc3)c(=O)n(C)c2n1	104	-21	/	/
CC1(C)CC(=O)C=C(NCCCNC2CCCCC2)C1	102	-13	101	108
Cc1ccc(NNC(=O)C(C)(C)O)c(C)c1	/	-26	68	80
CC/C(C)=N/n1c(-c2ccc3c(c2)NC(=O)CO3)csc1=Nc1ccc(C)cc1	/	-26	98	78
COc1ccc(OC)c2c1cc1n2CC(C)(C(=O)NC2CCCC2)N(CCCN2CCOCC2)C1=O (stereo not given)	111	-10	/	/
CCOc1ccc(OCC(=O)O)cc1	/	-22	96	84
Cc1ccccc1N1CCN(S(=O)(=O)c2cccs2)CC1	106	8	103	97
CCc1ccc(NC(=O)CCCc2nnc3n(CC(C)C)c(=O)c4sccc4n23)cc1	107	/	94	93
Cc1nnc(SCc2nc(-c3ccc(Cl)cc3)no2)n1-c1ccc(F)cc1	107	2	81	77
CC(=NCc1ccc(Cl)c(Cl)c1)c1ccccc1O	107	2	119	95
CC[N+]1=C(Nc2c(C)cccc2C)SCC1	100	-8	98	79
N#C[C@@H]1C[C@@](C#N)(C(=O)c2ccccc2)[C@H]2C=Cc3ccccc3N12	/	-38	5.3*	4.5*
Cc1c(Cl)cn2c(=O)cc(CN3CCN(C(=O)c4ccco4)CC3)nc2c1Cl	/	-67	74	78
O=C(CN(C(=O)c1ccc(Cl)nc1)c1ccc2c(c1)OCCO2)NCc1ccco1	103	-6	91	72
CC(C)OCCCN1C(=O)c2nc3ccccc3n2CC1(C)C(=O)NC1CCCC1 (stereo not given)	105	7	/	/
Cc1csc(NC(=O)C2CC2)n1	/	-26	85	68
COc1ccccc1C1CC(=O)Nc2c1c(-c1ccc(Cl)cc1)nn2-c1ccccc1 (stereo not given)	101	-18	/	/
COc1ccc(C2CC(=O)N(CC(=O)Nc3ccc(C)c(Cl)c3)c3ccccc3S2)cc1OC (stereo not given)	105	-44	106	86
CCc1ccc(N2CC(c3nc4ccccc4n3CC)CC2=O)cc1 (stereo not given)	/	-6	98	89
CC(=O)c1cccc(NC(=O)CSc2nnc3ccc(-c4ccc(C)cc4)nn23)c1	97	/	110	87
CCn1cnc2c(oc3ccccc32)c1=O	101&106	-14	113	93
CC(=O)c1cccc(NC(=O)c2cc(-c3ccccc3)nc3ccccc23)c1	107	7	/	/
CCOC(=O)c1sc2nc(Cc3ccccc3)nc(NCCC3=CCCCC3)c2c1C	101	/	104	85
CCn1cc(C(=O)NCCc2ccc(Cl)cc2)c(=O)c2cc(S(=O)(=O)N(C)C3CCCCC3)ccc21	99	-35	100	90
O=C(NCC(O)c1ccccc1)c1ccc(Cl)cc1 (stereo not given)	103	-2	107	77
CCCn1c(=O)c2sccc2n2c(CCC(=O)NC(C)C)nnc12	93	-18	/	/
COc1ccc(C)cc1NC(=O)CSc1nc(=O)[nH]c2c1CCCC2	104	/	116	98
CCOC(=O)c1ccccc1NC(=S)N1CCC(N2CCCCC2)CC1	97	-19	90	82
O=C(N1CCC(n2cnc3cccnc32)CC1)N1c2ccccc2Sc2ccccc21	105	6	92	74
N#Cc1ccc(NC(=O)c2oc3ccccc3c2CSCc2ccccc2)cc1	/	-14	78	91
O=C1Cc2ccccc2CC(=O)N1	101	-13	89	84
N#CC(C#N)=CNCc1cccs1	104	-39	85	89
CCOC(=O)C1=C(C)N=c2s/c(=C\c3ccc(OC(C)=O)cc3)c(=O)n2C1c1ccc(OCC)c(OCC)c1 (stereo not given)	107	9	/	/
COc1ccc(-n2c(SCC(N)=O)nc3ccccc3c2=O)cc1	/	-42	84	88
O=C1CSC(c2cccc([N+](=O)[O-])c2)N1c1ccc(Oc2ccccc2)cc1 (stereo not given)	103	-18	/	/
CC(C)(C)C(=O)CSc1nc2ccccc2c(=O)n1-c1ccccc1	/	-25	129	84
CCc1ccc(CN(C)C(C)C(=O)Nc2ccc(NC(C)=O)cc2)cc1 (stereo not given)	/	-17	97	98

Other results.
SMILES	GIV-Gai inh	HCMV NEC inh	Sa growth 42C	Sa growth 42C second temp
CCCNC(=O)NCc1cc(C)n(-c2ccc(Cl)cc2)c1C	117	-32	92	86
C=CC[n+]1c(C)csc1Nc1ccc(C)cc1	/	-7	93	98
COC(=O)c1ccc2c(c1)N(C)C(=O)/C(=C/c1ccccc1OC)S2	106	/	78	68
O=C(C1CCN(S(=O)(=O)c2ccc(Br)s2)CC1)N1CCN(c2cccc(Cl)c2)CC1	104	0	110	90
CC(=O)c1ccc(N2CCN(c3ncnc4onc(C)c34)CC2)cc1	104	/	91	94
NC(=O)c1ccc(NC(=O)CN2CC(=O)Nc3ccccc32)cc1	/	-3	105	87
CCOC(=O)c1c(Nc2ccc(C)cc2)n[nH]c1N	110	-2	83	48
CCc1c(-c2ccccc2)nc2nc(C)c(C)nn12	112	-51	115	89
CC(NC(=O)C(c1ccccc1)N1Cc2ccccc2C1=O)c1ccc2c(c1)OCCO2 (stereo not given)	104	-2	88	85
Cc1cc2nc3n(c2cc1C)CCCN3	100	-13	93	87
Cc1oc2ccc(O)c(CN3CCN(C)CC3)c2c1C(=O)OCC(C)C	101	-13	79	68
COc1cc(OC)cc(C(=O)NC(C(=O)N2CCC2)C(C)C)c1 (stereo not given)	/	-2	108	107
CCOC(=O)c1cc2c(=O)n3ccccc3nc2n(CCOC)c1=NC(=O)c1cc2ccccc2o1	103	-15	94	92
CCn1c(N2CCN(C(=O)Nc3ccc(Cl)c(C(F)(F)F)c3)CC2)nc2ccccc21	97	-8	88	67
Cc1nnsc1C(=O)NNc1ccc(C(C)C)cc1	108	-41	85	88
O=C(NC1CCCCC1)/C(=N\O)c1ccccn1	94	-28	109	90

Limited to Sa growth 42C and Sa growth 42C second temp, for 2 of the compounds above:
SMILES,Sa growth 42C,Sa growth 42C second temp
Cc1cc2nc3n(c2cc1C)CCCN3,93,87
CCn1c(N2CCN(C(=O)Nc3ccc(Cl)c(C(F)(F)F)c3)CC2)nc2ccccc21,88,67

(further entries)
SMILES	GIV-Gai inh	HCMV NEC inh	Sa growth 42C	Sa growth 42C second temp
O=C(NC1CC1)C1CCN(C(=O)c2cnn(-c3ccccc3)c2-n2cccc2)CC1	102	-17	96	85
CC(C)NC(=S)NC(=O)c1ccco1	/	22	112	107
CCOc1nc2c(c(C)nn2-c2ccc(C)cc2)c(C)c1CCC(=O)Nc1cc(F)ccc1C	105	-20	/	/
CCc1cc(=O)oc2c(C)c(OCC(=O)Nc3ccc(S(=O)(=O)N(CC)CC)cc3)ccc12	101	-35	113	81
Cc1nc(NCc2ccccc2)nc2c1C(=O)CC(C)C2 (stereo not given)	99	-11	/	/
O=C(c1cccs1)N1N=C(c2ccc(Br)cc2)CC1c1cccc([N+](=O)[O-])c1 (stereo not given)	105	-2	/	/
CCCCn1cnc2c(-c3ccccc3)cn(CC(=O)Nc3ccccc3)c2c1=O	98	-37	/	/
CCOC(CSc1nnc2c3ccccc3n(CC)c2n1)OCC	102	-41	113	68
Cc1ccc(CN2c3ccccc3-c3nc(SCC(=O)NCCc4ccccc4)ncc3S2(=O)=O)cc1	104	/	76	90
O=C(CC1CCN(C(=O)c2nnc(C(=O)Nc3ccc(F)cc3)s2)CC1)NCc1ccccc1	107	-17	/	/
Cc1c(C(=O)N(C)C)sc2c1c(=O)n(-c1ccccc1C(F)(F)F)c(=O)n2Cc1ccccc1C#N	101	/	95	89
CN(Cc1nc2ccccc2c(=O)[nH]1)C(=O)c1cn(-c2ccccc2)nc1-c1cccs1	/	-9	104	80
COc1ccccc1N1CCN(C(=O)CSc2nc(C)c(C)c(=O)[nH]2)CC1	106	-9	94	96
OCCN(Cc1ccccc1)Cc1cccc(C(F)(F)F)c1	103	-10	107	98
COc1ccccc1CNC(=O)C(Cc1ccccc1)NS(=O)(=O)c1ccc2c(c1)oc(=O)n2C (stereo not given)	97	-21	107	82

Compound activity as filed in PubChem BioAssay.
